# Tb PYK inh: inhibitors of Trypanosoma brucei pyruvate kinase | Q57TT1 | TbPYK enzyme, Kinase-Glo Plus ATP luminescence, 45 min | Potency, µM (top dose mostly 76.8 µM), for inactives: at the top dose activity, negative = inhibition, usual class: inhibitors | 410,000 compounds, 0.12% hits; also: nearly all actives have a fitted effect of over 50% in size
#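 Quantitative HTS: titrated library compounds versus trypanosomal pyruvate kinase in TEA buffer (pH 7.2) containing KCl, MgCl2, BSA and Tween-20. Reactions were initiated with ADP, 130 uM final. Kinase-Glo Plus luminescence was read after 45 min at RT.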
# HCV inh: inhibitors of hepatitis C virus infection | 340,000 compounds, 3.4% hits | Potency, µM (highest dose often 41.8 µM), for inactives: at the highest dose activity change, negative = inhibition, most hits filed as inhibitors | Huh7.5.1 HCVcc-Cre infection, luciferase reporter, 44 h | AID 651820
#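 1,000 cells/well; 4 h culture; + compound; + HCVcc-Cre (~0.5 moi); 44 h; luciferase substrate, RT 15 min; read 15 sec.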
# LmPK inhibitor: inhibitors of Leishmania mexicana pyruvate kinase; Q27686; purified LmPK, Kinase-Glo ATP luminescence, 1 h; Potency, µM (highest dose often 57.5 µM), for inactives: at the highest dose activity change, negative = inhibition, hits mostly inhibitors; 290,000 compounds, 0.37% hits; AID 1721
# Target sequence (Q27686 whole entry, looked up): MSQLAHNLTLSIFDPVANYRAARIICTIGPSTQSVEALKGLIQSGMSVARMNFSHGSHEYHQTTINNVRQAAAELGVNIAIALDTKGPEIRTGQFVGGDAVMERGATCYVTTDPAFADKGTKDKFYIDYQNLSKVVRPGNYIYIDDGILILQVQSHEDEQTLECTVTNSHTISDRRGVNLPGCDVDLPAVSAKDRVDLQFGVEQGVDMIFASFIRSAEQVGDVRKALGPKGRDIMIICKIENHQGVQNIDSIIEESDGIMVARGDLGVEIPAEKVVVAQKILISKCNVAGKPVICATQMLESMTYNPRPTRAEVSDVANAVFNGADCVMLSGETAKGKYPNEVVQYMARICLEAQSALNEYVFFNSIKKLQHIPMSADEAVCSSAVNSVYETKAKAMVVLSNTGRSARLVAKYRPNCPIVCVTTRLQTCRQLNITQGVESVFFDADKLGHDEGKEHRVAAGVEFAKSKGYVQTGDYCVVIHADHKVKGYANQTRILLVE
#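 Purified LmPK (0.1 nM) with 0.5 mM PEP and 0.1 mM ADP in imidazole buffer pH 7.2 with MgCl2/KCl, 1 h at room temperature. ATP formed was read by luciferase luminescence and normalized to no-enzyme and uninhibited controls.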
# * hit, by the source's call; ? = inconclusive; / = not tested or not shown; & = joins results of further samples; [ ] = remark or other dose. Calls follow the shape of the dose curve; as a rule, active = well fitted curve in the direction sought with a large enough effect; inconclusive = small, poorly fitted or top-dose-only effect, or another doubt; inactive = no such curve, though single readings can be large; an effect the other way counts as inactive or inconclusive. % is scaled to controls: 0 for no effect and ±100 for the full control effect; potency is read from the fitted curve at half-maximal effect. This is a subset; the hit share may differ from the screen's.
[1] C[C@H]1CCC/C=C/[C@@H]2C[C@H](O)C[C@H]2[C@@H](O)/C=C/C(=O)O1
[2] COc1cc2nc(N3CCN(C(=O)c4ccco4)CC3)nc(N)c2cc1OC
[3] C[C@H]1[C@H](C)CC[C@]2(C(=O)O)CC[C@]3(C)C(=CC[C@@H]4[C@@]5(C)CC[C@H](O)C(C)(C)[C@@H]5CC[C@]43C)[C@H]12
[4] O=C(NCCCN1CCCCCC1)C1CC(=O)N(C2CCCC2)C1 (stereo unspecified)
[5] CN1C2CCC1CC(OC(c1ccccc1)c1ccccc1)C2 (stereo unspecified)
[6] COC(=O)[C@H]1[C@H]2C[C@@H]3c4[nH]c5cc(OC)ccc5c4CCN3C[C@H]2C[C@@H](OC(=O)c2cc(OC)c(OC)c(OC)c2)[C@@H]1OC
[7] CCN1CCN(C(=O)N[C@@H](C(=O)N[C@@H]2C(=O)N3C(C(=O)O)=C(CSc4nnnn4C)CS[C@H]23)c2ccc(O)cc2)C(=O)C1=O
[8] O=c1c(-c2ccccc2)coc2cc(O)ccc12
Compound	1	2	3	4	5	6	7	8
Tb PYK inh	-14%	0%&-10%	-13%	2%	0%&6%	0%&2%	6%	-7%
HCV inh	?	-5%[8.37 µM]	0.32µM*	8%	?	?	12%	-5%
LmPK inhibitor	/	3%&-1%	2%	-1%	0%	/	/	?

# Profiles, looked up by structure:
# COC(=O)[C@H]1[C@H]2C[C@@H]3c4[nH]c5cc(OC)ccc5c4CCN3C[C@H]2C[C@@H](OC(=O)c2cc(OC)c(OC)c(OC)c2)[C@@H]1OC in the list: Tb PYK inh: 0%&2%; HCV inh: ?; LmPK inhibitor: /
# O=c1c(-c2ccccc2)coc2cc(O)ccc12 in the list: Tb PYK inh: -7%; HCV inh: -5%; LmPK inhibitor: ?

# Carrying on.
[9] O=C1CN(/N=C/c2ccc([N+](=O)[O-])o2)C(=O)N1
[10] CN(C)C(=O)C(CCN1CCC(O)(c2ccc(Cl)cc2)CC1)(c1ccccc1)c1ccccc1
[11] O=C1CC2OCC=C3CN4CCC56c7ccccc7N1C5[C@H]2[C@H]3C[C@H]46 (stereo partly specified) (tested in a mixture with another compound)
[12] CNCC[C@@H](Oc1ccc(C(F)(F)F)cc1)c1ccccc1
[13] C[C@@H]1O[C@@H](O[C@H]2C[C@@H](O)[C@@]3(CO)[C@H]4[C@H](O)C[C@]5(C)[C@@H](C6=CC(=O)OC6)CC[C@]5(O)[C@H]4CC[C@@]3(O)C2)[C@@H](O)[C@H](O)[C@H]1O
[14] CCn1cc(C(=O)O)c(=O)c2cc(F)c(N3CCN(C)CC3)cc21
[15] CCCOc1ccc(-c2nc(C#N)c(NCCCn3ccnc3)o2)cc1
[16] CC(=O)c1ccc(-c2ccccc2)cc1
Compound	9	10	11	12	13	14	15	16
Tb PYK inh	1%&-2%	-3%&2%	1%	-3%	-1%	9%&-6%	-7%	-3%
HCV inh	25µM*	?	/	7.9µM*	/	-4%	?	6%
LmPK inhibitor	2%	8%	/	/	/	4%	3%	-5%

[17] CC(C)n1c(/C=C/[C@@H](O)C[C@@H](O)CC(=O)O)c(-c2ccc(F)cc2)c2ccccc21
[18] CC(=O)N1CCN(c2ccc(OC[C@H]3CO[C@](Cn4ccnc4)(c4ccc(Cl)cc4Cl)O3)cc2)CC1
[19] CNCCC(Oc1ccc(C(F)(F)F)cc1)c1ccccc1 (stereo unspecified)
[20] CCCNCC(O)COc1ccccc1C(=O)CCc1ccccc1 (stereo unspecified)
Compound	17	18	19	20
Tb PYK inh	5%	4%	3%&2%	-12%&-2%
HCV inh	-3%	?	?	-17%[8.37 µM]
LmPK inhibitor	-6%	21%&1%	-5%	-1%

# Gathered by group: those above with nitrogen in an aromatic ring (7)
[2] COc1cc2nc(N3CCN(C(=O)c4ccco4)CC3)nc(N)c2cc1OC
[6] COC(=O)[C@H]1[C@H]2C[C@@H]3c4[nH]c5cc(OC)ccc5c4CCN3C[C@H]2C[C@@H](OC(=O)c2cc(OC)c(OC)c(OC)c2)[C@@H]1OC
[7] CCN1CCN(C(=O)N[C@@H](C(=O)N[C@@H]2C(=O)N3C(C(=O)O)=C(CSc4nnnn4C)CS[C@H]23)c2ccc(O)cc2)C(=O)C1=O
[14] CCn1cc(C(=O)O)c(=O)c2cc(F)c(N3CCN(C)CC3)cc21
[15] CCCOc1ccc(-c2nc(C#N)c(NCCCn3ccnc3)o2)cc1
[17] CC(C)n1c(/C=C/[C@@H](O)C[C@@H](O)CC(=O)O)c(-c2ccc(F)cc2)c2ccccc21
[18] CC(=O)N1CCN(c2ccc(OC[C@H]3CO[C@](Cn4ccnc4)(c4ccc(Cl)cc4Cl)O3)cc2)CC1
Compound	2	6	7	14	15	17	18
Tb PYK inh	0%&-10%	0%&2%	6%	9%&-6%	-7%	5%	4%
HCV inh	-5%[8.37 µM]	?	12%	-4%	?	-3%	?
LmPK inhibitor	3%&-1%	/	/	4%	3%	-6%	21%&1%

# Source: PubChem BioAssay (National Center for Advancing Translational Sciences (NCATS))
